Mtb H37Rv – M. tuberculosis H37Rv growth inhibitors, H37Rv strain (AID 1626); M. tuberculosis H37Rv growth inhibition; higher % means a stronger effect; inhibition, % at 10 µM; hits with a dose series show IC50 in µM; 0.95% of 220,000 active;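 active = confirmed in a dose series; inconclusive = inhibition above 80% but not taken into the dose series; inactive = below 80% or under 30% at every dose of the series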;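 note: bacteria incubated seven days before Alamar blue readout; 0% = bacteria only wells and 100% = bacteria with antibiotic wells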
RecA splice inh – blocks M. tuberculosis RecA intein splicing; P9WHJ3; inhibition, %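 (about 9 µM by stock and volumes)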; 0.75% of 290,000 active; cell-free RecA intein splicing, fluorescence; in the data active = inhibition above about 30%; inconclusive = no clear call, values can overlap the other calls;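 note: 0% = vehicle wells and 100% = reference inhibitor control wells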
Target sequence (P9WHJ3 whole entry, looked up, canonical isoform): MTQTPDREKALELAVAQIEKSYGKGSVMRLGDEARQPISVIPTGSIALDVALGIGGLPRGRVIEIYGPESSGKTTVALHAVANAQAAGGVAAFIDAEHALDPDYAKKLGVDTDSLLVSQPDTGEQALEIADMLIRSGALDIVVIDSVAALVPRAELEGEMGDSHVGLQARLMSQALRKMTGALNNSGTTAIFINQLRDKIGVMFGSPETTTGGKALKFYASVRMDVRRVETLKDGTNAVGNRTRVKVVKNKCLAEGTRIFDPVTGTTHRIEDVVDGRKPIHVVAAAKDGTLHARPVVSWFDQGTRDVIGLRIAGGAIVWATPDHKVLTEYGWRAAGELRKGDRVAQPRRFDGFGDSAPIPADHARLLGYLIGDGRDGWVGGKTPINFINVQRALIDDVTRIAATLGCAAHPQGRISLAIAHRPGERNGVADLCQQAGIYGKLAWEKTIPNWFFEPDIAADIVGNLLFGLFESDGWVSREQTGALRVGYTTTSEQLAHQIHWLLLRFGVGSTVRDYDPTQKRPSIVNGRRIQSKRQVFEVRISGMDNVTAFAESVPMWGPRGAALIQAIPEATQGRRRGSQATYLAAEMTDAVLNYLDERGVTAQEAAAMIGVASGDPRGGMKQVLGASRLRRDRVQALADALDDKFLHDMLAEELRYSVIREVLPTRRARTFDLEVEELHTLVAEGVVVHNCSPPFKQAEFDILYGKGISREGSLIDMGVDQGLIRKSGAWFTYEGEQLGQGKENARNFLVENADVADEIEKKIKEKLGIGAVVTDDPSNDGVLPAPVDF
YopH PTP inh – blocks Yersinia enterocolitica YopH tyrosine phosphatase. fluorescence Ex485/Em525. inhibition, %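 (about 10 µM by stock and volumes)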. 0.16% of 140,000 active. AID 898;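 active = inhibition of 50% or more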;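 note: controls were vehicle for no effect and minimum signal wells for full effect; inactives centre near -20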
Arbovirus inh – arbovirus infection inhibition; inhibition, % at 10 µM; 0.37% of 200,000 active; arbovirus infection cell-based antiviral screen;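 active = inhibition from about 30%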;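 note: bluetongue infection of BSR cells; cell survival read as ATP light after 72 h; 0% = infected wells without compound and 100% = uninfected wells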
Mtb bLac sens – beta-lactam sensitization of Mtb H37Rv | M. tuberculosis H37Rv growth with meropenem, percent inhibition; hits of this screen are not shown here | inhibition, % at 25 µM | 0.27% of 330,000 active | AID 434955;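 active = about 74% or more and at least 40 points above the plate without the antibiotic, then above 30% in a dose series; inconclusive = first-round hits that could not be retested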;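 note: growth measured after seven days incubation then overnight dye step; 0% = bacteria only wells and 100% = bacteria with antibiotic; twin plates without the antibiotic show which effects depend on it; some results filed as inactive read as strong as hits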
Arbovirus inh repeat – further read-out of Arbovirus inh, marked with its call; inhibition, %; measured here: 10K subset replicate screen; many hits read low in the repeat;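 first of two repeat runs on a subset; 0% = infected and 100% = uninfected wells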
Active calls of the source: *; ? = inconclusive; nt = not tested or not shown. Only part of the results is shown; the hit share may differ from the screen's.

SMILES	Mtb H37Rv	RecA splice inh	YopH PTP inh	Arbovirus inh	Mtb bLac sens	others
O=[N+]([O-])c1ccc(S(=O)(=O)N2CCC3(CC2)OCCN3S(=O)(=O)c2cccs2)cc1	nt	4.9	nt	nt	-6
N#Cc1c(NC(=O)CSc2nnc(-c3ccncc3)n2CC2CCCO2)sc2c1CCCC2 (stereo unspecified)	-7%	4.0	-25	-6	-2
CC(=O)NC1C2CN3CCN(C2)CC1(Cc1ccccc1)C3 (stereo unspecified)	-7%	1.6	-20	0	-6
CC(C)=CC(=O)OCC(=O)Nc1cc(C)ccc1C	8%	0.1	nt	0	4
CC(=O)N1C2CCCCC2S[C@H]2CCCCC21 (stereo partly specified)	-7%	1.8	-46	7	1
CC(=O)c1cccc(NC(=O)Cc2coc3cc4c(cc23)CCC4)c1	6%	2.4	-4	5	-4
NC(=O)c1ccsc1NC(=O)COc1ccccc1	-8%	-0.4	12	1	-5
COc1cc(-c2nc3ccccn3c2/N=C/c2cc(OC)c(O)cc2Cl)ccc1O	4%	-95	nt	1	-7
O=C(O)c1ccccc1Nc1ccc([N+](=O)[O-])cc1	1%	4.1	-21	37*	0
O=C(O)C1CCCN1S(=O)(=O)c1cccc2nsnc12 (stereo unspecified)	5%	1.3	nt	-1	1
O=C1c2ccccc2C(=O)N1CCCCN(C(=O)c1cc2ccccc2oc1=O)c1ccc(Cl)cc1	0%	2.7	-19	-1	-14
CCCN(CCC)CCCNC(=S)Nc1ccc2nc(N3CCN(CC)CC3)cc(C)c2c1	-1%	-0.2	nt	-17	-8
CC(C)c1nnc(NC(=O)C2CCCN2C(=O)Nc2ccccc2[N+](=O)[O-])s1 (stereo unspecified)	-8%	-0.9	nt	10	-17
O=S(c1ccc2ccccc2c1)c1cnns1 (stereo unspecified)	14%	nt	3	-12	55
COc1ccc(OC)c(-c2csc(NC(=O)Cc3ccc(F)cc3)n2)c1	nt	7.9	nt	nt	90
O=C(Cn1cnc2c(nnn2Cc2ccccc2)c1=O)N1CCCc2ccccc21	nt	-0.9	-24	2	-1
O=C(NCc1cccs1)C1CCCN1C(=O)Nc1ccccc1 (stereo unspecified)	0%	nt	-5	-3	2
O=C(COc1ccccc1Cl)NCc1ccccc1	nt	0.0	nt	nt	-8
O=C(O)c1nn(CC(=O)N2CCN(S(=O)(=O)c3ccc(Cl)cc3)CC2)c(=O)c2ccccc12	-4%	5.7	nt	nt	-1
O=C(O)c1ccc2c(c1)C(=O)N(CCc1ccccc1)C2=O	nt	1.0	nt	nt	3

6 structures already listed, ordered by heavy-atom count, lowest first:
SMILES	Mtb H37Rv	RecA splice inh	YopH PTP inh	Arbovirus inh	Mtb bLac sens	others
O=S(c1ccc2ccccc2c1)c1cnns1 (stereo unspecified)	14%	nt	3	-12	55
NC(=O)c1ccsc1NC(=O)COc1ccccc1	-8%	-0.4	12	1	-5
O=C(O)c1ccc2c(c1)C(=O)N(CCc1ccccc1)C2=O	nt	1.0	nt	nt	3
O=[N+]([O-])c1ccc(S(=O)(=O)N2CCC3(CC2)OCCN3S(=O)(=O)c2cccs2)cc1	nt	4.9	nt	nt	-6
N#Cc1c(NC(=O)CSc2nnc(-c3ccncc3)n2CC2CCCO2)sc2c1CCCC2 (stereo unspecified)	-7%	4.0	-25	-6	-2
O=C1c2ccccc2C(=O)N1CCCCN(C(=O)c1cc2ccccc2oc1=O)c1ccc(Cl)cc1	0%	2.7	-19	-1	-14

Next part:
SMILES	Mtb H37Rv	RecA splice inh	YopH PTP inh	Arbovirus inh	Mtb bLac sens	others
Cc1ccc(NC(=O)CNc2ccccc2CN(C)C2CCCCC2)cc1	3%	4.5	nt	-33	1
Cc1nc(Cl)c2c(n1)NC1=C(O2)C(=O)CCC1	0%	-401	-11	10	-8
Cc1ccc(/C=N\NC(=O)C2CC(=O)N(c3ccccc3)C2)o1 (stereo unspecified)	0%	-1.0	nt	nt	-7
S=C(Nc1ccc2c(c1)OCO2)Nc1ccc2c(c1)OCO2	-3%	3.9	-19	-17	-2
COc1ccc(C)c2sc(=NC(=O)c3cccc(N4C(=O)CCC4=O)c3)n(C)c12	-5%	-1.4	nt	nt	-6
CCc1nc(NCCN2CCOCC2)c2oc3ccccc3c2n1	-2%	0.9	-5	9	-12
Cc1cccc(NC(=O)Cn2c(C)c(C#N)c3ccccc32)c1C	-2%	-1.5	-45	1	-7
CCn1c(CC(=O)Nc2ccccc2)nnc1SCC(=O)Nc1nncs1	nt	-1.7	nt	nt	4
O=C(N=C1c2ccccc2CN1c1ccccc1)c1cccc([N+](=O)[O-])c1	-1%	5.2	-17	-6	-10
Cn1c(=O)c2c(nc(CN3CCN(C(c4ccccc4)c4ccccc4)CC3)n2CC(N)=O)n(C)c1=O	3%	0.4	-9	4	-12
Cc1ccnc(SCc2cc(=O)c(OC(=O)c3cccs3)co2)n1	1%	9.8	nt	3	21
CC1CCCC(NC(=O)C2CCN(S(=O)(=O)N3CCCCC3)CC2)C1C (stereo unspecified)	-3%	1.2	nt	7	-5
CSc1nnc2c(n1)OC=Nc1ccccc1-2	1%	3.1	-21	0	-11
Cc1c(Cl)cccc1NCC(=O)Nc1ccc(Cl)cc1F	-17%	7.3	10	-10	-6
C=CCNC(=O)NC(=O)COC(=O)[C@H](C)NS(=O)(=O)c1c(C)c(C)cc(C)c1C	0%	1.4	nt	nt	-3
CCO/C=N/c1c(C#N)c2c(c(=S)n1C)COC(C)(C)C2	-1%	1.2	-9	-2	-7
OCC(O)C(O)C(O)C(O)C1NCCS1 (stereo unspecified)	-1%	-3.2	-22	4	8
CCOC(=O)C1Nc2ccccc2C2C(O)C(O)CC12 (stereo unspecified)	100%	3.6	nt	nt	67
CCCNC(=S)Nc1cccc(C(F)(F)F)c1	-2%	-6.9	-27	8	5
O=C(Nc1ccc(F)cc1)C1CCCCC1	-4%	1.6	-23	6	-23
COc1ccccc1NC(=O)c1ccc(N)cc1	16%	-3.7	-37	-4	-7	Arbovirus inh repeat=-4
CC(C)OCc1c(C(=O)Nc2nccs2)oc2ccccc12	26%	3.3	nt	19	nt
Cc1ccc(C(CC(=O)NCCCN(C)C)c2ccc(OC(C)C)cc2)cc1 (stereo unspecified)	11%	1.7	nt	nt	-15
CCOc1ccccc1NC(=O)COC(=O)Cc1cccs1	nt	-3.2	nt	nt	-6
CC1CN(C(=O)COc2ccc3ccccc3c2Br)CC(C)O1 (stereo unspecified)	nt	1.5	nt	nt	-3
CCNC(=S)N1CCN(c2ccccn2)CC1	-1%	-2.3	6	-8	-1
Cc1cc(NS(=O)(=O)c2ccc(NC(=O)NC3CCCCC3)cc2)no1	-1%	-0.2	8	15	-3
CCCCn1c(N)c(N(CCOC)C(=O)CN(C)S(=O)(=O)c2ccc(C)cc2)c(=O)[nH]c1=O	nt	-2.8	nt	nt	-5
O=C(Nc1ccc(S(=O)(=O)Nc2ncccn2)cc1)C12CC3CC(CC(C3)C1)C2	nt	0.6	nt	nt	-4
O=C(CN1C(=O)C2CCCCC2C1=O)Nc1cc(C(F)(F)F)ccc1N1CCCC1 (stereo unspecified)	nt	5.3	nt	nt	-2
CCCCn1c(O)c(C(C)=NCCc2c[nH]c3ccccc23)c(=O)[nH]c1=O	6%	nt	nt	nt	-2
COc1ccc(-c2noc(N3CCC(C(=O)NCc4ccc(Cl)cc4)CC3)n2)cc1	nt	-1.9	nt	nt	-4
Cc1ccc(N2C(=O)CC(c3c[nH]c4ccccc34)C2=O)cc1 (stereo unspecified)	0%	-6.8	nt	15	-8
COc1ccccc1NC(=O)N1CCCC1C(=O)NCc1ccc2c(c1)OCO2 (stereo unspecified)	-1%	-4.3	-22	0	-28
Cc1ccc(S(=O)(=O)NCC(C)n2cncn2)cc1C (stereo unspecified)	nt	0.1	nt	nt	0
Cc1ccc(S(=O)(=O)N2CCCCC2)cc1NC(=O)c1ccc2c(c1)OCO2	7%	-1.8	-32	-2	-6
O=C(c1ccc(S(=O)(=O)NCC2CCCO2)cc1)N1CCN(c2cccc(Cl)c2)CC1 (stereo unspecified)	2%	3.1	nt	6	nt
COc1ccc(CCc2nnc(CCC(=O)NCc3cnc4ccccn34)o2)cc1	7%	0.4	nt	5	-10
Cc1oc(-c2ccccc2Cl)nc1CS(=O)CC(=O)NC1CC1 (stereo unspecified)	nt	-0.6	nt	nt	-4
COc1cc(SC)ccc1C(=O)OC1CCOC1=O (stereo unspecified)	-5%	2.3	-19	4	?
O=C(COC(=O)C1CCCCC1)Nc1ccc(N2CCCCC2)cc1	-7%	-1.1	-40	-1	-14
O=C(NCC1CCCO1)c1cc(C(=O)C2CC2)c[nH]1 (stereo unspecified)	-8%	0.0	-48	6	-12
Cn1nc(C(=O)Nc2cccc(Cl)c2)cc1C(=O)Nc1cccc(Cl)c1	nt	1.4	nt	nt	-19
CCOC(=O)C1=C(N)OC2=C(C(=O)CCC2)C12C(=O)N1c3c(ccc(C)c32)C(C)=CC1(C)C (stereo unspecified)	-14%	0.5	-23	0	-3
CS(=O)(=O)N1CC2CCCN2c2ccc(C(F)(F)F)cc21 (stereo unspecified)	10%	0.8	nt	4	-4
O=C(CSc1n[nH]c(-c2ccccc2)n1)c1ccc(O)c(O)c1	-10%	-3.9	-44	-10	6
O=C(CCCc1nc(-c2ccc(Cl)cc2)no1)NC1CCCC1	nt	-2.0	nt	nt	34
COCCCN(C(=S)NC(=O)C12CC3CC(CC(C3)C1)C2)c1c(N)n(Cc2ccccc2)c(=O)[nH]c1=O	-6%	-7.3	nt	-7	11
CCOC(=O)C1(CCOc2ccccc2)CCN(Cc2cc(OC)c(O)cc2Cl)CC1	nt	1.6	nt	nt	2
Cc1ccccc1NC(=O)COc1ccc2c(c1)OC(C)(C)CC2=O	18%	-0.9	nt	nt	11
Cn1ncc(Cl)c1C(=O)Nc1nnc(C2CC2)s1	nt	-0.5	nt	nt	-9
COc1cccc(CNC(=O)c2cc(S(=O)(=O)N3CCOCC3)cn2C)c1	nt	-3.0	nt	nt	0
c1ccc(-c2nc(N3CCNCC3)nc3ccccc23)cc1	-3%	-96	-4	-8	-9
Fc1ccc(-n2c(-c3ccc4c(c3)OCO4)n[nH]c2=S)cc1Cl	5%	-0.3	-37	6	1
CC(C)N1CC23C=CC(O2)C(C(=O)OCc2ccccc2)C3C1=O (stereo unspecified)	-10%	0.3	-31	15	?
Cc1cccc(NC(=O)NNC(=O)c2nn(C)cc2Br)c1	0%	2.7	-6	-5	-2
Oc1ccc(C(c2nnnn2C2CCCCC2)N2CCOCC2)cc1 (stereo unspecified)	-1%	-2.2	nt	6	4
O=C(c1ccco1)N1CCN(Cc2nnnn2C2CCCCC2)CC1	nt	4.5	nt	nt	-2
O=Cc1ccccc1-c1cn(CN2C(=O)c3ccccc3C2=O)nn1	nt	-0.3	nt	nt	4
Cc1ccc(-c2c3c(=O)n(C)c(=O)n(C)c3cn2Cc2ccccc2)cc1	-4%	-3.7	-9	-4	-4

Continuation:
SMILES	Mtb H37Rv	RecA splice inh	YopH PTP inh	Arbovirus inh	Mtb bLac sens	others
O=C(Cc1ccccc1)N1CCN=C1SCc1cccc([N+](=O)[O-])c1	2%	8.5	nt	-5	1
Cc1ccc(C(=O)N(c2ccccn2)C(C)c2ccco2)cc1 (stereo unspecified)	6%	0.9	-36	-5	-6
CCOc1ccc(N(C(=O)CNC(=O)c2ccco2)C(C(=O)NC2CCCC2)c2ccncc2)cc1 (stereo unspecified)	-2%	0.6	nt	4	-3
Cc1c(C#N)c2ccccc2n1C	4%	1.3	nt	nt	-5
O=C(Cc1c[nH]c2ccccc12)NNC(=O)c1ccccc1	3%	1.4	-8	9	-2
O=C1c2ccccc2C(=O)c2c1cccc2-n1nnc2ccccc21	-1%	0.7	nt	nt	1
CCOc1cccc(OCC)c2c(C)[n+](CC3CCCO3)c(C)c1-2 (stereo unspecified)	-11%	-1.9	-2	2	9
CC(=O)Oc1cccc(N2C(=O)C3C4C=CC(C4)C3C2=O)c1 (stereo unspecified)	-8%	2.4	10	8	-12
O=c1c2ccccc2[nH]c(=S)n1-c1ccc2c(c1)OCCO2	2%	-3.4	nt	nt	-2
Cc1cccc(C)c1NC(=O)CN(C)S(=O)(=O)c1ccc(-c2ccc(=O)[nH]n2)s1	nt	4.0	nt	nt	-2
O=C(CC1C(=O)NCCN1Cc1ccccn1)NCCc1ccccc1F (stereo unspecified)	nt	0.9	nt	nt	13
COc1cc(C2/C(=C(/O)c3ccccc3)C(=O)C(=O)N2c2ccccn2)ccc1O (stereo unspecified)	-8%	-5.2	nt	4	0
O=C(c1cc2cc(Br)ccc2[nH]1)N1CCC2(CC1)OCCO2	nt	4.6	nt	nt	-4
CC(C)CCNC(=O)[C@H](CSCc1ccccc1)N1Cc2ccccc2C1=O	-6%	1.1	-8	-6	-3

Screening data: PubChem, several laboratories
